# Mtb MbtI inh – MbtI salicylate synthase inhibitors, primary screen, biochemical, fluorescence intensity; hit rate 0.89% among 100,000; purified MbtI enzyme, fluorescence intensity read-out; P9WFX0; inhibition, %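 (about 17 µg/mL by stock and volumes)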; AID 493033, 2011;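 active = above 50% in both replicates, above 80% if mildly self-fluorescent; inactive = the rest, strongly fluorescent compounds included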;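 also: 0% = mean of negative and 100% = mean of positive controls; one replicate is shown; some compounds called inactive have numbers as strong as hits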
# Target sequence (P9WFX0 whole entry, looked up): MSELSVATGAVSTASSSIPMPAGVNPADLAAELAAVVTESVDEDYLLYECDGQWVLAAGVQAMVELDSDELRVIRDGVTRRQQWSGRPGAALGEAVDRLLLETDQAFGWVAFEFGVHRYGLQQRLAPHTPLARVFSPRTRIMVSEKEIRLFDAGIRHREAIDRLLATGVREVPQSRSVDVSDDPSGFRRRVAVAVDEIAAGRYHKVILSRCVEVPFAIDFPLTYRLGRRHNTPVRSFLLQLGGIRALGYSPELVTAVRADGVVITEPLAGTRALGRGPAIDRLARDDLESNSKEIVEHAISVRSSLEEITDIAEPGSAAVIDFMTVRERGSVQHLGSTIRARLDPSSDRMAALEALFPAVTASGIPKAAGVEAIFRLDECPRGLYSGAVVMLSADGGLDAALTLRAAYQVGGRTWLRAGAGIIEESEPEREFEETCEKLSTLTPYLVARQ
# Polio RdRp inh – poliovirus RdRp elongation inhibitors, primary screen, biochemical, fluorescence polarization, total intensity | Genome polyprotein (Poliovirus type 1 (strain Mahoney)), P03300 | hit rate 0.66% among 150,000 | AID 588519, 2011 | % elongation, % (compound at 16.7 µg/mL) | poliovirus polymerase elongation; active compounds read low; in the data active = % elongation below about 90%; also: some results filed as inactive read as strong as hits
# Mtb MenB inh – M. tuberculosis MenB inhibitors, primary screen, biochemical, absorbance. MenB enzyme assay, absorbance read-out; some hits fall short of the stated cut. hit rate 0.43% among 100,000. inhibition, %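 (about 12 µg/mL by stock and volumes)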. 1,4-dihydroxy-2-naphthoyl-CoA synthase (Mycobacterium tuberculosis (strain ATCC 25618 / …;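 active = mean of two replicates above 30%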;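 also: 0% = no compound and 100% = wells with inactive enzyme; the first replicate is given; strong numbers were not always called active; inactives centre near -10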
# Target sequence (P9WNP5 whole entry, looked up): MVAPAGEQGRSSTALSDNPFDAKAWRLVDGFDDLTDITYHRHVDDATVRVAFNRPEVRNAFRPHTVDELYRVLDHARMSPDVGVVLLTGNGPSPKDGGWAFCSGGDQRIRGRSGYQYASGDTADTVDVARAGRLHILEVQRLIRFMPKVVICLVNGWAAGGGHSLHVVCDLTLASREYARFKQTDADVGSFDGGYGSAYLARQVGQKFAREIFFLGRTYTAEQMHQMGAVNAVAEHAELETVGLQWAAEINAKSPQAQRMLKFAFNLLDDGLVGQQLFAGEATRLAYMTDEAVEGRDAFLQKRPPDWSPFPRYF
# Polio RdRp inh intensity – further read-out of Polio RdRp inh, marked with its call; % elongation; measured here: total intensity read-out; formula for this scale not given here;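 total fluorescence in place of polarization; lower means less elongation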
# Active calls of the source: *; . = no result given; & = joins results of further samples.
# Sample of the layout (4 entries):
# Second line of a record – Mtb MbtI inh, Polio RdRp inh, Polio RdRp inh intensity, Mtb MenB inh
OCCC1CNCCN1Cc1c(F)cccc1Cl (configuration not stated)
 : -2, 100, 100, 14
CC12CN3CN(C1)CC(C)(C3)C2=O
 : -11, 101, 100, -2
CN(CC(=O)N1CCN(c2ccccn2)CC1)S(=O)(=O)c1ccccc1
 : -161, 101, 102, -9
O=C(NCC(c1ccco1)N1CCCCC1)c1ccc2c(=O)n3c(nc2c1)CCCCC3 (configuration not stated)
 : 4, 103, 107, -33

# The whole of this part, from the first entry:
# Second line of a record – Mtb MbtI inh, Polio RdRp inh, Polio RdRp inh intensity, Mtb MenB inh
OCCC1CNCCN1Cc1c(F)cccc1Cl (configuration not stated)
 : -2, 100, 100, 14
CC12CN3CN(C1)CC(C)(C3)C2=O
 : -11, 101, 100, -2
CN(CC(=O)N1CCN(c2ccccn2)CC1)S(=O)(=O)c1ccccc1
 : -161, 101, 102, -9
O=C(NCC(c1ccco1)N1CCCCC1)c1ccc2c(=O)n3c(nc2c1)CCCCC3 (configuration not stated)
 : 4, 103, 107, -33
CC(C)C(NS(=O)(=O)c1cccc2nsnc12)C(=O)NCc1ccco1 (configuration not stated)
 : 10, 104, 99, 7
CCN(CC)P1(=S)c2c(C)nn(CCC#N)c2N=C(c2ccc(F)cc2)N1C (configuration not stated)
 : 4, 102, 105, 6
COc1ccc(-c2cc(C(N)=O)c3ccccc3n2)cc1
 : 106, 102, 106, -2
CCC1(c2ccccc2)NC(=O)N(C)C1=O (configuration not stated)
 : -2, 98, 103, 1
CCOc1ccccc1CNC1CC(C)(C)NC(C)(C)C1
 : ., 105, 111, 1
OC(CNc1nc(-c2cccnc2)nc2ccccc12)c1ccccc1 (configuration not stated)
 : 13, ., ., 2
CC1CCCC(NC(=O)C2CCN(C(=O)N(C)C)CC2)C1C (configuration not stated)
 : 12, 104, 107, -2
CC(NS(=O)(=O)c1ccc2c(c1)CCC2)c1ccc(-n2ccnc2)cc1 (configuration not stated)
 : -5, 106, 104, -24
O=c1c(-c2ccc(I)cc2)[n+]([O-])c2ccccc2n1O
 : 43, 101, 111, -114
COc1ccc(-c2cc(OC(=O)c3ccco3)cc3sc(=O)oc23)cc1
 : 8, 101, 102, 5
O=C(Cn1ncc2c(=O)oc3ccccc3c21)Nc1ccc2c(c1)OCCO2
 : -2, 102, 101, -22
Cn1cnc(S(=O)(=O)Nc2ccc3c(c2)C(=O)OC3)c1
 : 3, 104, 104, -16
Cn1c(CCNC(=O)c2cccs2)nnc1SCC(=O)N1CCN(c2ccccc2)CC1
 : -6, 101, 102, -19
CCOc1ccc2c(c1)S/C(=C1\Oc3ccccc3OC1=O)N2C
 : 6, 104, 104, -11
COc1ccc(N2C(=O)CCC(C(=O)Nc3ccccn3)C2c2ccc(OC)c(OC)c2)cc1 (configuration not stated)
 : -1, 100, 102, -33
COCCN1Cc2cccc(C(=O)NCCc3ccccc3)c2C1=O
 : -12, 100, 101, -11
CCOC(=O)N1CCN(c2nc(-c3ccccc3)no2)CC1
 : -4, 104, 101, -13
Cc1ccccc1N1C(=O)CC(Nc2ccc3c(c2)OCO3)C1=O (configuration not stated)
 : -24, 104, 105, -21
CN(C)C(=O)O/N=C(\N)c1ccc(OCc2ccccc2F)cc1
 : 9, 100, 96, 15
O=C(NCc1ccccc1)NCc1cccn1Cc1ccccc1
 : -18, 100, 104, -8
N#Cc1cc(Oc2ccc(F)cc2)c(-n2nnc3ccccc32)cc1C#N
 : ., 111, 112, 5
CC(NC(=O)c1ccc(CSc2ccccc2)cc1)c1ccccc1 (configuration not stated)
 : ., 99, 101, -38
NC(=O)N/N=C/c1ccc(-c2ccc(Cl)cc2)o1
 : -21, 98, 104, -38
CC(C)(C)NC(=O)Nc1cnccc1C(F)(F)F
 : -7, 102, 100, -14
Cc1ncc(CO)c(/C=N/N=C/c2c(O)ccc3ccccc23)c1O
 : -14, 100, 107, -55
O=C(COc1ccc2c(-c3ccccc3)cc(=O)oc2c1)c1ccccc1
 : -4, 102, 108, -5
O=S(=O)(NCCNC/C=C/c1ccc(Br)cc1)c1cccc2cnccc12
 : 15, 100&99, 103&101, -2
CC1CC(C)CN(S(=O)(=O)c2cccc(C(=O)Oc3ccc4c(c3)OCO4)c2)C1 (configuration not stated)
 : -5, 104, 104, -47
Cc1n[nH]c(C)c1CCc1nc2c3ccccc3nc(=S)n2[nH]1
 : 18, 102, 101, -66
CC(C)(C)NC(=O)c1cc(S(=O)(=O)N2CCCCC2)ccc1Cl
 : -6, 104, 107, .
CCOC(Cn1c(CC)nc2ccccc21)OCC
 : 0, 104, 102, -18
COc1ccc(/C=C/C(=O)NCc2ccccn2)cc1OC
 : -46, 100, 99, -26
O=C(OCc1cc(=O)n2ccsc2n1)c1ccc(NS(=O)(=O)c2ccc3c(c2)OCCO3)cc1
 : 15, 100, 100, -13
CCCCN(C)C(=O)Nc1cn(C)c(=O)c2ccccc12
 : -36, 91, 90, -8
Cc1occc1C(=O)N/N=C/c1ccc(C(C)(C)C)cc1
 : 2, 100, 100, 11
COc1cc(Cc2nnc(C(=O)NC(C)C)o2)cc(OC)c1OC
 : -9, 100, 109, 0
O=C(Cn1[nH]c(=O)c2ccccc2c1=O)NCc1ccncc1
 : -16, 103, 100, 7
C=CCSc1nc(N)c(C(=O)OCC)cc1C#N
 : -155, 100, 98, -38
CC(C)(C)c1ccc(C(=O)N2CCCCCC2)cc1
 : 8, ., ., -28
Cc1ccc(CCNC(=O)c2cc3c(=O)oc4ccc(C)cc4c3s2)cc1
 : 0, 101, 104, -7
CCN(CC)C(=O)C1CCCN(Cc2ccccc2)C1 (configuration not stated)
 : -7, 104, 101, -11
Cc1cc2c(cc1C)NC(C(F)(F)F)=CC(c1cccs1)=N2
 : -6, 102, 96, -50
CCCCn1cnc2cc(NCc3ccc(Br)cc3)ccc21
 : 1, 97, 93, -36
COC(CNC(=O)c1ccc2nc(-c3ccccc3)c(-c3ccccc3)nc2c1)OC
 : 26, 103, 101, -2
O=C(OCC(=O)N1CCCCC1)c1ccc(Br)o1
 : -12, 102, 104, .
CC(OC(=O)C1CCN(c2ccc(C(F)(F)F)cn2)CC1)C(=O)Nc1cccc(C#N)c1 (configuration not stated)
 : 22, 102, 107, -27
CCOC(=O)C1CCN(CC(=O)Nc2cccc3cccnc23)CC1
 : -3, 100, 106, -2
O=C(c1ccncc1)N(c1ccccc1)c1ccccc1
 : -1, 101, 104, .
CCOC(=O)c1ccc2[nH]c3c(c2c1)CCCC3NC=O (configuration not stated)
 : -16, 104, 103, 7
C=CCN(CC=C)C(=O)COc1ncnc2sccc12
 : 17, 97, 94, -15
COc1cc(-c2nnc(NC(=O)CCS(=O)(=O)c3ccc(C)cc3)o2)cc(OC)c1OC
 : 4, 107, 106, -25
COc1ccccc1CCNC(=O)c1ccc(COc2ccccc2Cl)o1
 : ., 111, 106, -10
COC(=O)c1ccc(Sc2ccc(C)cc2)c(N)c1
 : 114, 98, 98, 0
Cn1c(=O)c2sccc2n2c(CCC(=O)Nc3ccccc3)nnc12
 : 0, 102, 105, 5
COc1ccccc1C1CCN(S(=O)(=O)c2ccccc2Br)CC1
 : -7, 104, 106, -14
O=C(CCCCn1c(=O)c2ccccc2n(CC(=O)N2CCN(c3ccccc3)CC2)c1=O)NCc1ccco1
 : -2, 103, 101, 5

# Next part:
# Second line of a record – Mtb MbtI inh, Polio RdRp inh, Polio RdRp inh intensity, Mtb MenB inh
O=C(CCN1C(=O)NC2(CCCC2)C1=O)NCc1cccs1
 : -4, 100, 96, -6
Cc1[nH]ncc1CNC(=O)c1ccc(N2CCOc3ccccc32)s1
 : -5, 103, 102, -82
O=C(CN1C(=O)CSC1=O)N1CCCCC1
 : 1, 99, 100, -4
CCOc1ccc(-c2cc(N)c(C(=O)OC)s2)cc1
 : -6, 102, 105, -9
OCc1noc(-c2ccc(Cl)c(Cl)c2)n1
 : -8, 107, 103, 4
CCOC(=O)N1CCCN(CC(=O)NC(C)(C)C)CC1
 : -4, 101, 89, -16
CSC(=NCCc1ccc(Cl)cc1)NS(=O)(=O)c1ccccc1
 : -8, 103, 106, -18
O[C@H]1[C@H]2c3cc4c(cc3CN3CCC(=C[C@@H]1O)[C@H]23)OCO4
 : -3, 97&99, 102&100, 8
O=S(=O)(Nc1ccc(-c2ccno2)cc1)c1ccc(-n2cccn2)cc1
 : 3, 104, 97, 4
FC(F)(F)c1c[nH]c(=S)c(C(F)(F)F)c1
 : 21, 117, 123, -18
CSc1ccccc1NC(=O)CN(C)C1CCN(C)CC1
 : -10, 98, 95, -18
CCN1C[C@]2(COC)CC[C@H](O)C34C5C[C@@H]6C(OC)C[C@@](O)(C5[C@H]6OC(C)=O)[C@@H](CC32)[C@@H]14 (some centres not stated)
 : -6, 99, 102, 0
O=C(ON=C1CCCC1)c1ccc(Br)cc1
 : 0, 99, 104, -24
O=C(CSc1nc2ccccc2[nH]1)Nc1ccc(Br)cc1F
 : 17, 102, 104, .
CC(C)Cn1c(N)c(C(=S)NC(=O)c2ccco2)c(=O)n(C)c1=O
 : 18, 103, 103, -2
COc1cccc2c1N(C(C)=O)C1CC(C)CCC1C2(C)C (configuration not stated)
 : ., 104, 105, 7
O=C(OCc1nnc(-c2ccccc2)o1)c1ccccc1
 : 1, 101, 108, -12
Clc1cccc(-c2noc3ncnc(NCCC4=CCCCC4)c23)c1
 : -3, 101, 105, -5
COc1ccc(N2C(=O)Nc3ccccc3C2(O)C(=O)NCCN2CCN(c3ccccc3)CC2)c(OC)c1 (configuration not stated)
 : 0, 101, 101, -30
O=C(COc1ccccc1)Nc1cccc(-c2ccc3nncn3n2)c1
 : 12, 101, 105, 7
Cc1cc(C[n+]2nc(-c3ccccc3)sc2N)c2ncccc2c1
 : 21, 101, 103, .
NC(=O)CSc1nnc2ccc3ccccc3n12
 : -105, 99, 101, 3
Cc1ccc(-c2nnc(SC(C)C)n2-c2ccccc2)cc1
 : -2, 106, 99, -24
COc1ccc(C(=O)CC2=NC(C)(C)CO2)cc1
 : 14, ., ., -5
Clc1ccc(Cl)c(-c2nn3c(Cn4nnc5ccccc54)nnc3s2)c1
 : 93*, 102, 96, -96
CC(C)N(C(=O)Cn1cc(S(=O)(=O)CC(=O)N(C)c2ccccc2)c2ccccc21)C(C)C
 : -13, 105, 108, -14
CCc1ccc(-c2nc(SCC(N)=O)n[nH]2)cc1
 : 33, 100, 92, 3
CC(C)(O)C(/C=C/c1ccccc1)=N/NC(N)=O
 : 2, 103, 104, -22
CC1=NN(c2ccccc2)C(=O)/C1=C\c1ccccc1CC(=O)O
 : -21, 100, 99, -20
O=C(/C=C/C(=O)c1ccc2ccccc2c1)c1ccccc1
 : 36, 102, 92, .
CS(=O)(=O)N(CC(=O)O)Cc1ccc(Cl)c(Cl)c1
 : -10, 102, 102, -10
CC(C#N)N1CCN(c2ccc(F)cc2)CC1 (configuration not stated)
 : -6, 99, 104, -15

# A second format for 20 compounds above.
molecule,Mtb MbtI inh,Polio RdRp inh,Polio RdRp inh intensity,Mtb MenB inh
O=C(CCN1C(=O)NC2(CCCC2)C1=O)NCc1cccs1,-4,100,96,-6
Cc1[nH]ncc1CNC(=O)c1ccc(N2CCOc3ccccc32)s1,-5,103,102,-82
O=C(CN1C(=O)CSC1=O)N1CCCCC1,1,99,100,-4
CCOc1ccc(-c2cc(N)c(C(=O)OC)s2)cc1,-6,102,105,-9
OCc1noc(-c2ccc(Cl)c(Cl)c2)n1,-8,107,103,4
CCOC(=O)N1CCCN(CC(=O)NC(C)(C)C)CC1,-4,101,89,-16
CSC(=NCCc1ccc(Cl)cc1)NS(=O)(=O)c1ccccc1,-8,103,106,-18
O[C@H]1[C@H]2c3cc4c(cc3CN3CCC(=C[C@@H]1O)[C@H]23)OCO4,-3,97&99,102&100,8
O=S(=O)(Nc1ccc(-c2ccno2)cc1)c1ccc(-n2cccn2)cc1,3,104,97,4
FC(F)(F)c1c[nH]c(=S)c(C(F)(F)F)c1,21,117,123,-18
CSc1ccccc1NC(=O)CN(C)C1CCN(C)CC1,-10,98,95,-18
CCN1C[C@]2(COC)CC[C@H](O)C34C5C[C@@H]6C(OC)C[C@@](O)(C5[C@H]6OC(C)=O)[C@@H](CC32)[C@@H]14 (some centres not stated),-6,99,102,0
O=C(ON=C1CCCC1)c1ccc(Br)cc1,0,99,104,-24
O=C(CSc1nc2ccccc2[nH]1)Nc1ccc(Br)cc1F,17,102,104,.
CC(C)Cn1c(N)c(C(=S)NC(=O)c2ccco2)c(=O)n(C)c1=O,18,103,103,-2
COc1cccc2c1N(C(C)=O)C1CC(C)CCC1C2(C)C (configuration not stated),.,104,105,7
O=C(OCc1nnc(-c2ccccc2)o1)c1ccccc1,1,101,108,-12
Clc1cccc(-c2noc3ncnc(NCCC4=CCCCC4)c23)c1,-3,101,105,-5
COc1ccc(N2C(=O)Nc3ccccc3C2(O)C(=O)NCCN2CCN(c3ccccc3)CC2)c(OC)c1 (configuration not stated),0,101,101,-30
O=C(COc1ccccc1)Nc1cccc(-c2ccc3nncn3n2)c1,12,101,105,7
